Source: PubChem BioAssay (National Center for Advancing Translational Sciences (NCATS))
TRPML1 inh – qHTS for Inhibitors of the Human Mucolipin Transient Receptor Potential 1 (TRPML1) | activity change, negative = inhibition, % (no concentration beside the values) | Mucolipin-1 (Homo sapiens), Q9GZU1 | TRPML1-inducible cells, Ca2+ dye fluorescence, FDSS; stronger effect = lower value; inhibition of EC80 agonist-evoked calcium signal | actives 0.02% (n = 390,000); in the data active means activity change below about -50%; inconclusive means about -30% to -50%; inactive means above about -30%;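 also: stimulus is agonist 54-4 at its EC80 concentration; % is scaled to controls: 0 for no effect and ±100 for the full control effect; compound concentration not given in the record; the text of the record puts the active cut at -80%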
Target sequence (Q9GZU1 whole entry, looked up): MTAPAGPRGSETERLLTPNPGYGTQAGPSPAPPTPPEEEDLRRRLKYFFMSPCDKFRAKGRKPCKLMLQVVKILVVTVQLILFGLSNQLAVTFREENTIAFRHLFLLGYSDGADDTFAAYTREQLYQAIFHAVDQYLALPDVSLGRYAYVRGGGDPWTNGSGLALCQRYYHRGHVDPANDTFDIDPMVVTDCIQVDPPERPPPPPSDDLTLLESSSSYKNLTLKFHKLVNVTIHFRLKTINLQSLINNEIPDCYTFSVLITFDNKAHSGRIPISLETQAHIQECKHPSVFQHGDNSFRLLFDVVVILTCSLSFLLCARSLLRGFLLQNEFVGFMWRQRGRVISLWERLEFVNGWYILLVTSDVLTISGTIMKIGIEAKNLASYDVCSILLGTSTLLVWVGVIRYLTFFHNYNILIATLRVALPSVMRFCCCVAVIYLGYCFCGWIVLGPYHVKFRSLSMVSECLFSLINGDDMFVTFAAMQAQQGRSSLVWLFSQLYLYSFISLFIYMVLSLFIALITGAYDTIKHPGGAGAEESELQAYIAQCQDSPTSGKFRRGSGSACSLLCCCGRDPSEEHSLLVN
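Tet-induced TRPML1-DL cells loaded with Ca8 no-wash calcium dye were read kinetically on FDSS. Compound addition was followed by EC80 agonist 54-4 (4 uM final); inhibition was read over 110 s.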
Menin-MLL FL inh – qHTS Assay for Inhibitors Targeting the Menin-MLL Interaction in MLL Related Leukemias: Competition With Fluorescein Labeled MLL-derived Peptide | 290,000 tested, under 10 active | Fluorescence polarization, fluorescein-MLL peptide displacement from menin | FP activity change, % at 61.4 µM; inconclusive = falling polarisation curve, or a change in total fluorescence; inactive = total fluorescence flat and polarisation flat or rising; no compound was filed as active; the % refers to the polarisation; negative = inhibition;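 also: % of control where 0% means no effect; inhibitors lower the polarisation; unlabelled MLL peptide was the positive control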
ClpP mod – qHTS Assay for Activators of ClpP. ATP-dependent Clp protease proteolytic subunit (Bacillus subtilis (strain 168)), P80244. purified B. subtilis ClpP, FRET peptide cleavage, 20 min. Potency, µM (series often up to 57.5 µM), for inactives: top-dose activity change, negative = active. actives 1.9% (n = 340,000). AID 651965, 2013; active = well fitted falling curve with a large enough effect; inconclusive = small, poorly fitted or top-dose-only effect; inactive = no such curve, though single readings can be large or run the other way; also: potency is read from the fitted curve at half-maximal effect; the source files actives as falling curves though it sought activators and does not explain the sign; nearly all actives have a fitted effect of over 65% in size; many hits overshoot -100%
Target sequence (P80244 whole entry, looked up): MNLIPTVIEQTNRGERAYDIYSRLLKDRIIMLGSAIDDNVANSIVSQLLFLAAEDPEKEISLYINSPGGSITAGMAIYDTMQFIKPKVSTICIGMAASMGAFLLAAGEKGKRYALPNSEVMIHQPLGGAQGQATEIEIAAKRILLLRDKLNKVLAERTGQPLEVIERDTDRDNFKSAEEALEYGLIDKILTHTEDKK
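Purified B. subtilis ClpP, 10 microg/mL final in Tris/HCl pH8 with KCl, BSA, glycerol and Tween-20, cleaved an Abz/nitrotyrosine-quenched decapeptide. Fluorescence (ex 320, em 430) was read at 0 and 20 min at room temperature. Delta was normalized to 5.8 microM ADEP and DMSO/no-enzyme controls.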
gsp antag – qHTS for Antagonists of gsp, the Etiologic Mutation Responsible for Fibrous Dysplasia/McCune-Albright Syndrome: qHTS; Potency, µM (doses to about 76.9 µM), inactives show at the highest dose activity change, negative = inhibition, hits mostly inhibitors; actives 0.4% (n = 340,000); gsp-mutant cells, cAMP HTRF, 30 min; control for the full effect not named in the record; active = falling curve of any shape with a large fitted effect; inconclusive = falling curve, mostly with a smaller effect; inactive = flat or rising curve; cell line not stated here;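 also: intracellular cAMP measured with PDE inhibitor Ro 20-1724 present during compound exposure; potency is read from the fitted curve at half-maximal effect; % is scaled to controls: 0 for no effect and ±100 for the full control effect; nearly all actives have a fitted effect of over 65% in size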
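Cells in G418 medium, seeded 16-24 h, 37C; buffer exchange to DPBS + 1 mM CaCl2, 0.5 mM MgCl2, 0.05% BSA; cpds in DMSO + […] (300 uM stock), 30 min 37C; HTRF cAMP detection.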
gsp ag – qHTS for Agonist of gsp, the Etiologic Mutation Responsible for Fibrous Dysplasia/McCune-Albright Syndrome: qHTS; gsp mutant cells, cAMP HTRF, 30 min; control for the full effect not named in the record; Potency, µM (top dose mostly 76.9 µM), without a hit: at the highest dose activation (cAMP increase), usual class: activators; actives 0.13% (n = 340,000); active = well fitted activation curve with a large enough effect; inconclusive = small, poorly fitted or top-dose-only effect, or another doubt; inactive = no such curve, though single readings can be large or run the other way; cell line not stated here;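 also: phosphodiesterase inhibitor Ro 20-1724 added with compounds to block cAMP breakdown; potency is read from the fitted curve at half-maximal effect; nearly all actives have a fitted effect of over 60% in size; about a fifth of the inactives were tested at one dose only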
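Cells stably selected in G418 were plated at 2000/well, grown 16-24 hr, then given compounds in DMSO with the PDE inhibitor […] (300 uM solution added) for 30 min at 37C; cAMP was read by HTRF.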
TRPML1 agonist – qHTS for Agonists of the Human Mucolipin Transient Receptor Potential 1 (TRPML1); Mucolipin-1 (Homo sapiens), Q9GZU1; actives 0.12% (n = 410,000); TRPML1-expressing cells, Ca2+ dye fluorescence, FDSS; host cell line not named in the record; reference of the full effect not given here; activation, % (no concentration beside the values); AID 624414, 2012; in the data active = activation above about 50%; inconclusive = about 30% to 50%; inactive = below about 30%; also: 0% is about no effect; the text of the record puts the active cut at 80%
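TRPML1-DL cells, Tet-induced overnight (~16 h, 37 degrees C), loaded 45-90 min at room temperature with Ca8 no-wash calcium dye plus quencher. FDSS fluorescence: 10 s baseline, compound pin-transfer, 110 s agonist read, then EC80 54-4 (4uM final) and 110 s antagonist read.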
* hit, by the source's call; u = inconclusive; x = not tested or not shown; [ ] = dose if it differs, or a comment.

smiles | TRPML1 inh | Menin-MLL FL inh | ClpP mod | gsp antag | gsp ag | TRPML1 agonist
COc1ccc(C2=NOC(Cn3nc(-c4ccccc4)cc3C(=O)NCc3cccs3)C2)cc1 (configuration not stated) | -6.4 | x | -11.5% | -2.5% | -34.6%[inhibitor] | 3.0
COc1ccccc1-c1nnc(C2CCN(C(=O)c3ccc(Cl)cc3)CC2)o1 | -16.2 | x | -3.1% | x | x | 0.7
COc1cccc2c1cc1c(=O)n(CC(=O)NCc3ccc(C)o3)nc(C)n12 | 7.5 | x | u | x | x | -0.3
Cc1ccc(S(=O)(=O)N(C)C[C@@H]2Oc3ccc(NC(=O)Nc4cccc5ccccc45)cc3C(=O)N([C@H](C)CO)C[C@H]2C)cc1 | 14.2 | x | -24.7% | -6.3% | x | -0.3
COc1ccc(NC(=S)c2ccc3ccccc3n2)cc1 | -1.4 | 0.4 | -1.3% | -0.4% | 10.7% | 0.1
COc1ccc(NC(=O)Cc2csc(NC(=O)Nc3ccccc3OC)n2)c(OC)c1 | 0.6 | x | -1.9% | u | -2.9% | 0.1
Cc1c(C(=O)COC(C)(C)C)[nH]c2ccccc12 | 17.0 | -0.7 | -3.3% | -3.6% | u | 0.7
COc1ccccc1N1CCN(C(=O)c2cnn(-c3cccc(Cl)c3)c2C2CCN(C(=O)OC(C)(C)C)CC2)CC1 | -11.9 | x | -2.4% | x | x | 67.2*
O=C(CCc1ccccc1)Nc1cccc([N+](=O)[O-])c1 | 7.5 | 3.2 | x | 3.8% | 11.0% | -0.5
Cc1ccc(NC(=O)CSC2=NN3CCCC(=O)N=C3S2)c(C)c1 | 4.8 | 0.9 | 1.6% | -2.0% | u | -0.6
Cc1ccc(CNc2ncnc3c2cnn3-c2ccc(C)cc2C)cc1 | -0.3 | x | -17.4% | x | x | 6.9
CCN(CC)c1ccc(C(=C2C=CC(=[N+](CC)CC)C=C2)c2ccccc2)cc1 | -0.1 | -6.0 | -7.6% | u | -4.6% | 8.1
Cc1cnc(SCc2ccc(Cl)cc2Cl)[nH]c1=O | -2.8 | 3.2 | 0.7% | -2.8% | -10.6% | 0.9
O=C(NC1CCCCC1)c1ccccc1C(F)(F)F | 4.4 | -1.7 | x | 13.4% | u | -0.2
CCOC(=O)c1sc(NC(=O)c2cc(-c3ccccc3)nc3ccccc23)c(C#N)c1C | 2.1 | 3.4 | 1.2% | -13.3% | -23.5% | -0.5
CNCC[C@@H](Oc1ccccc1C)c1ccccc1 | 5.2 | -18.3 | -1.5% | 1.7% | x | -0.2
CCC(C)CCN1C(N(C)C)=NC[C@@H]1CC(C)C (some centres not stated) | 14.3 | x | -2.1% | 14.4% | x | 0.2
Cc1cccc(C(=O)OCC(=O)NCc2ccco2)c1 | -25.9 | x | u | 7.8% | -27.2% | -0.7
CC(=O)c1ccc(N2CCN(C(=O)CCCn3c(=O)[nH]c4ccc(Br)cc4c3=O)CC2)cc1 | -1.3 | 1.2 | -11.0% | 35.5µM* | 19.9% | -0.2
COC(=O)c1cccc([N+](=O)[O-])c1CN1CCCC(C(N)=O)C1 (configuration not stated) | 10.8 | 3.9 | -0.6% | 22.2% | 11.9%[15.4 µM] | -0.3
CN1CCN(C(=O)C2CCN(S(=O)(=O)c3ccccc3[N+](=O)[O-])CC2)CC1 | -8.1 | x | 3.5% | 9.4% | 1.4% | -0.3
COC(=O)c1ccc(NC(=S)NC(=O)c2cc(-c3ccccc3)nc3ccccc23)cc1 | -1.6 | 1.3 | -2.4% | 1.9% | -1.6%[15.4 µM] | 1.0
Cc1ccc2c(c1)C1C[N+](C)(CC(=O)Nc3ccccc3Cl)CCC1N2C(=O)c1ccccc1Cl (configuration not stated) | -16.6 | x | -1.3% | 9.1% | 22.5%[15.4 µM] | 0.6
COc1ccc(-c2n[nH]c(=S)nc2-c2ccc(OC)cc2)cc1 | -5.1 | 2.1 | -5.0% | -23.7% | -26.2% | 2.9
COc1ccc(N2CCN(C(=O)COC(=O)c3ccco3)CC2)cc1 | -12.3 | x | -5.9% | -1.7% | -168.7%[inhibitor] | 0.6
CCOc1ccc(C(=O)N2CC(=O)Nc3ccc(F)cc3C2c2ccc(F)cc2)cc1 (configuration not stated) | -3.0 | x | 0.7% | x | x | -0.5
CCc1ccc2oc(-c3ccc(NC(=O)c4ccc(OC)c(Br)c4)cc3)nc2c1 | 27.7 | x | -23.6% | x | x | -0.9
O=C(Nc1ccc(Cl)cc1C(F)(F)F)C(Sc1cccc[n+]1[O-])c1ccccc1 (configuration not stated) | 3.5 | -5.3 | 17.8% | -4.1% | 1.7%[15.4 µM] | -0.9
CCOc1ccc(CCNC(=O)COC(=O)c2cccc(N(C)C)c2)cc1OCC | -8.9 | x | -4.8% | 2.3% | -0.5% | 2.5
COc1ccccc1N(CC(=O)N/N=C(\C)c1cccc(Br)c1)S(C)(=O)=O | -9.6 | 8.0 | 1.6% | -1.8% | -40.9%[inhibitor] | 1.5
S=c1[nH]c2ccc(Cc3ccc4[nH]c(=S)[nH]c4c3)cc2[nH]1 | 0.4 | 2.2 | x | 3.5% | 27.3% | -0.2
Cc1cc(C)c2sc(N)nc2c1 | 9.6 | -1.5 | 4.4% | 2.6% | -14.6% | -0.1
CCCC(CC)Sc1nc2c([nH]1)c(=S)n(C)c(=O)n2C (configuration not stated) | -21.5 | x | -6.8% | -6.6% | 1.7% | 3.4
CC[C@@]12C(=O)N(c3ccccc3)C(=O)N1[C@H](c1ccc(Br)cc1)[C@@H]1C(=O)N(C(C)(C)C)C(=O)[C@@H]12 | -6.3 | x | -3.7% | 7.5% | -3.9% | 0.0
CC(C)[C@H](NC(=O)c1cccc(S(=O)(=O)N2CCOCC2)c1)C(=O)OCC(=O)Nc1cccc(Br)c1 | 5.2 | x | 0.8% | -28.6% | -2.0% | 0.2
O=C(Nc1c2c(nn1-c1ccc(Cl)cc1)CS(=O)(=O)C2)c1ccc(Br)cc1 | 42.6 | x | 2.6% | x | x | 1.3
COc1ccc2c(C)c(CCC(=O)NCCCN3CCCC3=O)c(=O)oc2c1C | x | -0.2 | 4.1% | 7.4% | x | x
Cn1c(=O)c2c(nc(Oc3cccc(Br)c3)n2C)n(C)c1=O | 24.5 | 1.5 | 0.0% | -4.7% | 32.2% | 0.1
CCN(CC)S(=O)(=O)c1ccc2oc(C(=O)N3CCc4ccccc4C3)c(C)c2c1 | 53.6 | 4.2 | -0.8% | 8.7% | 24.2% | 2.9
CCOc1ccc(CNC(=O)c2ccc3nc(CC)c(CC)nc3c2)cc1 | 6.0 | x | -14.0% | x | x | 0.8
Cc1cccc(/C=C2/SC(=O)N(Cc3ccccc3)C2=O)n1 | -23.4 | 3.1 | 0.0% | -5.4% | 1.0% | 1.0
O=C(O)c1ccc2c(=O)n3c(nc2c1)/C(=C/c1ccc(C(F)(F)F)cc1)CC3 | 6.6 | -5.8 | 3.3% | u | u | 0.4
COc1ccccc1N1CCN(S(=O)(=O)c2c(C)nc3sccn3c2=O)CC1 | 6.6 | x | -1.8% | x | x | -1.0
CC(C)(C)C1=C(C#N)C(c2ccncc2)C(C#N)=C(N)O1 (configuration not stated) | 7.4 | 4.5 | u | 4.8% | -41.1%[inhibitor] | -0.2
CCC1CCCCN1S(=O)(=O)c1ccc2c(c1)CCCN2C(C)=O (configuration not stated) | -24.2 | x | -2.5% | x | x | -0.4
O=C(c1cc2ccccc2oc1=O)N(Cc1ccccc1)CC1CCCO1 (configuration not stated) | -4.1 | -1.4 | -19.5% | -5.7% | -2.2% | 0.6
CCOc1ccc(NC(=O)N2CCC(NC(=O)C(Cc3ccccc3OC)NC(C)=O)CC2)cc1 (configuration not stated) | 18.7 | 1.5 | x | 8.1% | -0.5%[15.4 µM] | 0.9
OC(C#CCN1CCCCCC1)(c1ccccc1)c1cccnc1 (configuration not stated) | 2.3 | 0.7 | 0.5% | 6.4% | 6.2%[15.4 µM] | 0.2
Cc1ccc(/C=N/NC(=O)c2cc(C)oc2C)cc1 | 15.1 | 0.9 | x | 0.0% | -21.2% | -0.1
CCCCn1c(SCC(=O)N(CC)C2CCS(=O)(=O)C2)nc2cc(S(N)(=O)=O)ccc21 (configuration not stated) | -2.1 | -1.7 | x | -1.0% | 13.9%[15.4 µM] | -0.3
CCOC(=O)c1cnn(-c2ccc(C(=O)Nc3ccc(C(C)=O)cc3)cc2)c1N | 1.8 | x | 0.9% | x | x | -0.4
COc1ccc(N2C3=C(CC4=C2CC(C)(C)CC4=O)C(=O)CC(C)(C)C3)cc1 | 42.4 | 2.5 | -13.5% | -11.1% | -44.0%[inhibitor] | 0.1
Cc1cc2c(cc1C)/C(=N/NC(=O)c1ccccn1)CCC2 | -0.3 | 2.9 | x | -15.9% | -12.6%[15.4 µM] | 2.0
Cc1ccc(S(=O)(=O)O/N=C2\CCCc3ccccc32)cc1 | -2.1 | 1.2 | 0.9% | 25.3% | -3.4% | 0.1
O=C(OC1CCOC1=O)c1ccc(NS(=O)(=O)c2cccs2)cc1 (configuration not stated) | 0.9 | -0.5 | x | -9.9% | 26.9% | -0.4
CCN1C(=O)/C(=C/c2cnn(CC)c2C)SC1=S | 45.3 | 11.6 | -1.4% | 7.2% | -18.8% | 0.6
COc1ccc(C(C)NC(=O)c2ccc([N+](=O)[O-])cc2)cc1OC (configuration not stated) | 22.7 | 0.1 | -11.9% | 3.7% | -13.1% | 1.5
Cc1c(NC(=S)NC(NC(=O)CC(C)C)C(Cl)(Cl)Cl)c(=O)n(-c2ccccc2)n1C (configuration not stated) | 5.0 | 2.3 | 1.0% | -1.3% | 4.1% | -0.8
COCCOC(=O)c1c(C)oc2ccc(OCc3cc(C(=O)OC)oc3C)cc12 | -1.9 | u | -2.3% | -18.7% | -40.4%[inhibitor] | 3.3
Cc1ccc(Nc2nc3ccc(C(=O)c4ccccc4)cc3n3c(C)nnc23)c(C)c1 | 8.2 | x | -1.1% | x | x | 0.1
Cc1cc(C)c(S(=O)(=O)c2ccccc2F)c(=O)[nH]1 | 2.7 | 2.6 | -18.3% | 0.8% | 35.2% | 1.2
CCOc1cc(N2CCOCC2)c(OCC)cc1NC(=O)CN1C(=O)N(C)C2(CCCCC2)C1=O | -3.3 | x | -2.4% | -11.2% | u | -0.4
O=C(NCc1ccncc1)c1cn(-c2ccccc2)nc1-c1cccnc1 | -25.4 | 0.1 | 0.4% | -3.5% | u | 1.6
